# Screens deposited in PubChem by several laboratories.
# CBX7 AlphaScr: CBX7 inhibition, primary AlphaScreen; O95931; AlphaScreen His6-CBX7 / biotin-H3K27me3 peptide binding; hits give low values; normalised signal (fraction of DMSO) (concentration not given with the values); 66,000 tested, 1.1% active; AID 1224903; in the data active means normalised signal below about 0.5;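 further: 100 nL library stock added to about 20 µL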
# Target sequence (O95931 whole entry, looked up): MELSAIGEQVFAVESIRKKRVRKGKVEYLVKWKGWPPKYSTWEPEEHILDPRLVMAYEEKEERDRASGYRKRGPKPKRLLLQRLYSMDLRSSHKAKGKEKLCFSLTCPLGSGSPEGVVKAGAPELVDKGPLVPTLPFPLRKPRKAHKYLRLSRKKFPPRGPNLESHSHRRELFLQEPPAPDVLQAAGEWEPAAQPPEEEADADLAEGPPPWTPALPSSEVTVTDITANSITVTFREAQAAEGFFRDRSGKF
# CBX7 AlphaScr z-score: second read-out of CBX7 AlphaScr, no call of its own (marks repeat the call); z-score; measured here: z-score of CBX7 signal; some inactives read as strong as hits; reference of the scale not given here;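 same signal on another scale; lower means less binding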
# * hit, by the source's call; & = joins results of further samples. An excerpt; the hit share may differ from the screen's.
SMILES,CBX7 AlphaScr,CBX7 AlphaScr z-score
O=C(NCCc1ccccc1)C1C2C=CC3(CN(Cc4cccs4)C(=O)C13)O2 (stereo not drawn),1,1.8
COc1ccccc1-c1cc2nc(C)c(CCC(=O)Nc3cc(C)cc(C)c3)c(C)n2n1,0.96,-1.1
O=C1CC(c2nc3ccccc3n2CCC2CCCCC2)CN1c1ccccc1 (stereo not drawn),1.1,1
Cc1ccc(C(=O)Nc2cccc(-c3nc4ncccc4o3)c2C)cc1,0.99,-0.42
Cc1ccc(CSc2nnc(-c3c[nH]c4ccccc34)n2C)cc1,1,0.64
CCOc1ccc(NC(=O)CC2C(=O)N(c3ccccc3)C(=O)N2Cc2cccs2)cc1 (stereo not drawn),1.1,2.1
O=C(Nc1ccc2oc(-c3cccc(Cl)c3)nc2c1)c1cccc(Br)c1,0.98,-0.3
COc1ccccc1NC(=O)c1cnn(-c2ccccc2)c1NC(=O)c1cccc(F)c1,1.1,0.62
COP(=O)(OC)C(c1ccccc1)c1nc2ccccc2[nH]c1=O (stereo not drawn),1.1,0.78
Cc1[nH]c2ccc(-c3nnc(SCC(N)=O)o3)cc2c1C,1.1,1
Cc1ccc(C(O)(Cc2ccncc2C)c2ccccc2)cc1 (stereo not drawn),0.77,-4.5
CCOc1c(C)cc(-c2ncccc2O)cc1C,0.91,-1
O=C(Nc1cccc(F)c1)c1cccnc1Nc1cccc(F)c1,1.4,3.6
Cc1cccc(NC(=O)c2cnc3sccn3c2=O)c1C,0.84,-1.9
COc1cccc(-n2c(Cc3cc(=O)[nH]c(=O)[nH]3)nnc2SCc2ccccc2C)c1,0.96,-0.55
COc1ccc(C2=NOC(C(=O)N3CCCCC3)C2)cc1 (stereo not drawn),1.1,1.3
CCn1c(C(=O)N2CCC(C(=O)N3CCOCC3)CC2)cc2sccc21,0.95,-0.22
COc1ccccc1-c1c(C)nn2c(N3CCN(c4cccc(Cl)c4)CC3)cc(C)nc12,1.1,0.96
O=C(Nc1ccccc1-c1nc2ccccc2s1)c1ccc(Cl)cc1,1,1.3
Cc1c2cn[nH]c(=O)c2c(C)n1Cc1ccc(F)cc1,0.82,-1.9
COc1ccc(CN2CCN(Cc3ccc(SC)cc3)CC2)cc1OC,1,0.55
Cc1ccc2c(C)nc(Nc3nc(C)cc(C)n3)nc2c1,1.1,1.6
O=C(COc1cccc(Br)c1)Nc1nc(-c2ccccc2)cs1,1.2,0.32
CCOc1ccc(-c2cn(-c3cccc(C)c3C)c(=O)[nH]2)cc1Cl,1,-0.0028
Cc1cc(N2CCCCC2)nc2ccc(NC(=O)c3cccc(F)c3)cc12,0.81,-4.9

# Next section
SMILES,CBX7 AlphaScr,CBX7 AlphaScr z-score
CCCCCCCNC(=O)CN1C(=O)CSc2ccc(S(=O)(=O)N(C)C3CCCCC3)cc21,1.1,2
CC(C)CCNC(=O)CCN1C(=O)COc2ccccc21,0.98,-0.67
CCOC(=O)c1c(NC(=O)COc2ccccc2)sc(C(=O)Nc2ccccc2OC)c1C,1,0.045
Cc1c(C(=O)Nc2c(C(=O)c3ccc(Cl)cc3)oc3ccccc23)oc2ccccc12,1.4,1.7
O=C(COc1ccc2ccccc2c1)Nc1cccc(-c2nc3ncccc3o2)c1,0.77,-1.9
COC(=O)c1ccc(Nc2nc(-c3ccccc3)c3cc(Cl)ccc3n2)cc1,1.1,3.2
COc1ccc(-n2c(Cc3cc(=O)[nH]c(=O)[nH]3)nnc2SCC(=O)Nc2cccc(OC)c2)cc1,0.87,-2
COc1ccc(CNC(=O)c2c(-c3ccncc3)csc2-n2cccc2)cc1,0.77,-0.89
Cc1nc2c(C)cccc2cc1-c1nnc(-c2ccccc2)o1,1&1,0.18&0.014
Cc1csc(NC(=O)CSc2nnc(Cc3cc(=O)[nH]c(=O)[nH]3)n2-c2ccc(F)cc2)n1,0.99,-0.2
Cc1ccc(CNC(=O)CSc2nc3nc(C)c(Cc4cccc(C)c4)c(C)n3n2)cc1,1.1,0.84
CCc1ccc(OCC(=O)N(Cc2cccc(Cl)c2)C2CCS(=O)(=O)C2)cc1 (stereo not drawn),1,0.023
Cc1ccc(CCN2CC(C(=O)NCCCN3CCC(Cc4ccccc4)CC3)CC2=O)cc1 (stereo not drawn),1,0.29
COc1ccc(-n2c3c(cc(C(=O)N4CCC(C)CC4)c2=O)C(=O)CC(C)(C)C3)cc1,1,1.1
Cc1ccc(OCc2nc(-c3ccccc3Cl)no2)c(C)c1,2.4,14
COc1ccc(CCNC(=O)C2CCN(S(=O)(=O)c3cnc[nH]3)CC2)cc1OC,0.84,-2.6
c1ccc(-c2nc3c4ccccc4nc(NCc4cccnc4)n3n2)cc1,1,0.44
Cc1ccc(OCCSc2nc3ccccc3n2CCOc2ccccc2)cc1C,1.3,1.7
CCCCNS(=O)(=O)c1ccc2nc(-c3cccs3)cc(C(=O)NCc3ccccc3)c2c1,1.1,1.2
Cc1ccc(NC(=O)CSc2ccc3nnc(-c4ccccc4)n3n2)c(C)c1,1,0.42
O=C(Nc1ccc2c(c1)nc1n2CCN(Cc2ccccc2)C1)c1ccc(F)cc1,0.97,-1.5
CN(CCNS(=O)(=O)c1ccc2c(c1)CCN2C(=O)C1CC1)Cc1ccccc1,1.3,3.6
CCOC(=O)c1ccc(NC(=O)CSc2nnc(-c3cccnc3)n2Cc2ccccc2)cc1,0.93,-2
O=C1c2ccccc2C(Nc2cc(F)ccc2F)N1c1ccc(Cl)cc1 (stereo not drawn),0.98,-0.43
COc1ccc(CNc2oc(COc3ccc(Br)cc3)nc2C#N)cc1,0.84,-6.9

# Shown with values under each structure: entries from further up.
# Screens in order: CBX7 AlphaScr, CBX7 AlphaScr z-score
Cc1c(C(=O)Nc2c(C(=O)c3ccc(Cl)cc3)oc3ccccc23)oc2ccccc12
 : 1.4, 1.7
O=C(COc1ccc2ccccc2c1)Nc1cccc(-c2nc3ncccc3o2)c1
 : 0.77, -1.9
COC(=O)c1ccc(Nc2nc(-c3ccccc3)c3cc(Cl)ccc3n2)cc1
 : 1.1, 3.2
COc1ccc(-n2c(Cc3cc(=O)[nH]c(=O)[nH]3)nnc2SCC(=O)Nc2cccc(OC)c2)cc1
 : 0.87, -2
COc1ccc(CNC(=O)c2c(-c3ccncc3)csc2-n2cccc2)cc1
 : 0.77, -0.89
Cc1nc2c(C)cccc2cc1-c1nnc(-c2ccccc2)o1
 : 1&1, 0.18&0.014
Cc1csc(NC(=O)CSc2nnc(Cc3cc(=O)[nH]c(=O)[nH]3)n2-c2ccc(F)cc2)n1
 : 0.99, -0.2
Cc1ccc(CNC(=O)CSc2nc3nc(C)c(Cc4cccc(C)c4)c(C)n3n2)cc1
 : 1.1, 0.84
CCc1ccc(OCC(=O)N(Cc2cccc(Cl)c2)C2CCS(=O)(=O)C2)cc1 (stereo not drawn)
 : 1, 0.023
Cc1ccc(CCN2CC(C(=O)NCCCN3CCC(Cc4ccccc4)CC3)CC2=O)cc1 (stereo not drawn)
 : 1, 0.29
COc1ccc(-n2c3c(cc(C(=O)N4CCC(C)CC4)c2=O)C(=O)CC(C)(C)C3)cc1
 : 1, 1.1
Cc1ccc(OCc2nc(-c3ccccc3Cl)no2)c(C)c1
 : 2.4, 14
COc1ccc(CCNC(=O)C2CCN(S(=O)(=O)c3cnc[nH]3)CC2)cc1OC
 : 0.84, -2.6
c1ccc(-c2nc3c4ccccc4nc(NCc4cccnc4)n3n2)cc1
 : 1, 0.44

# Further records:
SMILES,CBX7 AlphaScr,CBX7 AlphaScr z-score
CCN1CCCC1CNC(=O)c1ccc2c(c1)N=C(C)c1ccccc1S2 (stereo not drawn),1.1,0.074
CCCCN(C)c1nc(-c2ccc(C)cc2)nc2ccccc12,1.3,8.5
COc1cc(OC)cc(-c2cc3nc(C)c(CCC(=O)NCc4cccnc4)c(C)n3n2)c1,0.93,-1.2
O=C(Cc1ccc(-n2c(=O)[nH]c3ccsc3c2=O)cc1)NCc1ccccc1,0.97,-0.74
CC(C)Nc1nc(-c2cccnc2)nc2ccccc12,1.1,0.32
CCN(CC)CCNC(=O)C1CCN(Cc2nc(-c3ccc(Cl)cc3)oc2C)CC1,1.4,5.5
CC(NC(=O)CSCc1cnn(-c2ccccc2)c1-n1cccc1)C12CC3CC(CC(C3)C1)C2 (stereo not drawn),0.97,-1.2
Cc1ccc(NC(=O)C2(c3ccccc3)CCOCC2)cc1C,1,0.85
CCCCNC(=O)CNc1ccccc1-c1nc2ccccc2[nH]c1=O,0.95,-0.83
COc1ccc(-c2noc(CCC(=O)Nc3cccc(OC)c3)n2)cc1,1.1,3.6
COc1cccc(OCC(O)Cn2c(Cc3ccccc3)nc3ccccc32)c1 (stereo not drawn),0.97,-1.3
Cn1c(C(=O)O)c(CC(=O)Nc2ccccc2F)c2ccccc21,1.1,0.11
COc1ccccc1NC(=O)C1(c2ccccc2)CCOCC1,1,0.078
COc1ccc(C(NC(=O)CCc2ccccc2)c2ccc3cccnc3c2O)cc1 (stereo not drawn),0.082*,-3.2*
O=C1CSc2ccc(C(=O)N3CCc4ccccc43)cc2N1,0.9,-0.99
COc1ccccc1CNCc1nc(-c2ccccc2)no1,1,0.4
CC(=O)Nc1nnc(-c2ccc3c(c2)OCO3)s1,1,1.6
CCCCOc1ccc(C(=O)Nc2nc(-c3ccc(Cl)cc3)cs2)cc1,1,0.26
O=C(NC1CCCC1)C(c1ccccc1)N1CCC2(CC1)OCCO2 (stereo not drawn),1,1.6
COc1ccc(N2CC(C(=O)Nc3ccc(Cl)c(Cl)c3)CC2=O)cc1 (stereo not drawn),1,1.1
CCOC(=O)c1ccccc1NC(=O)CC1Nc2ccccc2NC1=O (stereo not drawn),1,0.098
Cc1ccc(Nc2nc(-c3ccc(S(=O)(=O)N4CCCCC4)cc3)cs2)cc1Cl,0.86,-3.1
Cc1ccc(-c2ccc(=O)n(CCC(=O)NC3CCCC(C)C3C)n2)cc1 (stereo not drawn),0.82,-0.37
COc1ccc(-c2noc(N(C)CC(=O)Nc3cc(C)on3)n2)cc1,0*,-34*
O=C(Nc1ccccc1)c1cccnc1Nc1cccc(C(F)(F)F)c1,1,0.93

# Next structures follow.
SMILES,CBX7 AlphaScr,CBX7 AlphaScr z-score
CCn1c(SCC(=O)Nc2ccccc2)nnc1-c1c[nH]c2ccccc12,1.2,0.97
CCN(CC)C(=O)c1ccc2c(c1)N(Cc1ccc(C(F)(F)F)cc1)C(=O)c1ccccc1S2,0.96,-0.18
Cc1ccc(C)c(N2CCN(CCCNC(=O)CN3C(=O)CCSc4ccccc43)CC2)c1,0.97,-1.4
CCC(=O)N1c2ccc(S(=O)(=O)CCC(=O)Nc3nc(C)cs3)cc2CC1C (stereo not drawn),0.98,-0.61
CC(=O)Nc1ccc(NC(=O)CSc2nnc(COc3ccccc3)n2-c2ccccc2)cc1,0.88,-1.5
O=C(Nc1ccc2oc(-c3ccncc3)nc2c1)c1cccc(Br)c1,0.95,-0.9
Cc1ccc(Nc2ccc(NCc3ccccc3)nn2)cc1Cl,0.91,-0.99
COc1cccc(-c2nc(CS(=O)(=O)CC(=O)NCCCSC3CCCCC3)c(C)o2)c1,1.1,1.3
Cc1nc(Nc2ccc(C)c(F)c2)c2c(C)c(C)sc2n1,0.8,-5.3
CCC1Sc2ccccc2N(CC(=O)NCCc2ccccc2)C1=O (stereo not drawn),1,1.2
Cn1c(=O)c(-c2nc3ccccc3c(=O)[nH]2)c(O)c2ccccc21,1,0.15
COc1ccc(-n2c(/C=C/c3cccc(OC)c3OC)nc3ccccc3c2=O)cc1Cl,0.98,-1.2
COc1ccc2c(c1)CCc1c(C(=O)NCCCn3ccnc3)noc1-2,0.64,-2.9
O=C(O)C1Cc2c([nH]c3ccccc23)C(c2ccc(Cl)cc2Cl)N1 (stereo not drawn),0.86,-1.5
Cc1ccc2oc(-c3ccc(C)c(NC(=O)C4CCCCC4)c3)nc2c1,1.1,0.061
COc1ccccc1CNC(=O)c1cc2c(s1)CSC2,1,0.32
COc1cccc(-c2nc(CS(=O)(=O)CC(=O)NC3CCCC(C)C3C)c(C)o2)c1 (stereo not drawn),1,1.2
COc1ccc(CC(=O)N2CC(=O)Nc3ccc(C)cc3C2c2ccccc2)cc1OC (stereo not drawn),0.92,-0.32
COc1ccc(N2CCN(c3cc(=O)n(-c4cccc(C(F)(F)F)c4)c(=O)[nH]3)CC2)cc1,0.95,-1
O=C(Nc1ccc(Br)cc1F)C1CCN(c2nnc(-n3cccc3)s2)CC1,1,0.86
COCCCNC(=O)c1cnc(Nc2ccc(OC)cc2)c2ccccc12,1.1,0.85
Cc1ccc(Nc2nc(-c3ccccc3F)nc3ccccc23)cc1F,0.89,-1.2
Cc1cc(C)cc(NC(=O)CSc2nnc(CNC(=O)c3cccs3)o2)c1,1,-0.03
CCN(CC)CCn1c(NCc2nc3ccccc3n2Cc2ccccc2)nc2ccccc21,0.86,-3.7
Cc1ccc(C)c(OCC(=O)NCCc2nc3ccccc3[nH]2)c1C,1.2,1.5

# The list continues:
SMILES,CBX7 AlphaScr,CBX7 AlphaScr z-score
O=C(CN1C(=O)CC(c2ccccc2)Sc2ccccc21)Nc1ccc(C(F)(F)F)cc1 (stereo not drawn),1.1,0.93
Cc1cc(OCc2nc(-c3ccccn3)no2)ccc1Cl,1.2,1.7
Cc1ccc(-c2noc(CCC(=O)Nc3cnc4ccccc4c3)n2)cc1,1.2,0.22
Cc1ccc(-c2noc(CCC(=O)N3CCN(c4cccc(Cl)c4)CC3)n2)cc1,1.1,0.092
O=c1[nH]c(-c2ccc(F)cc2)cn1-c1ccc(Cl)cc1,1,-0.023
O=C1C(Oc2ccccc2)C(c2ccc3c(c2)OCO3)N1c1cccc(C(F)(F)F)c1 (stereo not drawn),0.94,-0.67
O=C(Nc1nc2c(s1)C(=O)NCCC2)c1ccccc1,0.87,-1.4
O=C(CN1C2=NCCCN2c2ccccc21)c1cccc2ccccc12,0.88,-1.3
O=C(CCCN1C(=O)CSc2ncccc21)N1CCCCC1,1,0.0082
O=C(NCCC1=CCCCC1)C1CCN(S(=O)(=O)c2cccs2)CC1,1,0.0045
COc1ccccc1OCCn1c(C2CC(=O)N(c3cc(C)ccc3C)C2)nc2ccccc21 (stereo not drawn),0.9,-0.63
COc1ccc(NC(=O)c2ccc(C#CC3(O)CCCCC3)cc2)cc1,0.96,-0.55
Cc1nc2cc(-c3ccccc3)nn2c(C)c1C,0.99,-0.31
